Compound activity from PubChem BioAssay.
NPYLR7 agonist: mosquito NPYLR7 agonism; HEK293T NPYLR7/Galpha15, GCaMP6s calcium fluorescence; activation, % at 10 µM; 270,000 compounds, 0.15% hits; AID 1259423; in the data active means activation above about 40%;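 further: 0% = vehicle and 100% = reference agonist at the receptor; some compounds past the cut are filed as inactive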
NPYLR7 agonist max-min: second read-out of NPYLR7 agonist, no call of its own (marks repeat the call); activation, %; measured here: Max-Min RFU normalised activation; some inactives read as strong as hits;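 span of the calcium signal over five minutes; 0% = vehicle and 100% = native peptide agonist; compound fluorescence can raise it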
Active calls of the source: *; & = joins results of further samples. Some of the compounds tested, so the mix of outcomes need not match the whole.

The line under a structure holds: NPYLR7 agonist, NPYLR7 agonist max-min
- COC(=O)c1ccc(F)c(S(=O)(=O)N(C)Cc2cccnc2)c1
    6, 4
- C=CCCC(=O)N1CCC(n2c(=O)oc3cc(C)ccc32)CC1
    6, 10
- Cc1nn(CC(=O)NCCC(C)C)c(=O)c2cc3occc3n12
    5, 3
- CN(C)S(=O)(=O)c1ccc(Br)c(C(=O)OC2CCCCC2)c1
    1, 4
- N#CC1=C(c2ccccc2)C(O)(c2ccccc2)NC1=O (stereo not given)
    -5, -9
- O=C(C1COCCO1)N1CCc2onc(-c3cccc4ccccc34)c2C1 (stereo not given)
    -4, -6
- COc1nc2ccccc2cc1-c1cc(C)ccc1OCC(N)=O
    5, -3
- CC(CC(=O)N(C)C1CCCCC1)NC(=O)c1ccccc1 (stereo not given)
    0, -2
- CC1CC(Sc2ccccc2O)C(=O)O1 (stereo not given)
    15, 12
- C=C(C)CN1CCN(c2nc3c(c(=O)[nH]c(=O)n3C)n2Cc2ccc(Cl)c(Cl)c2)CC1
    11, 3
- CSc1ccc(C(=O)CC(C)(C)C(=O)NC2CCCCC2)cc1
    -3, -10
- COc1ccc(/C=C2/SC(N)=NC2=O)cc1O
    -5, -18
- O=C(Nc1ccc2[nH]cc(CCN3CCN(c4cccc(C(F)(F)F)c4)CC3)c2c1)c1c(Cl)cc(Cl)cc1Cl
    16, 6
- CCOCCn1c(=O)c2c(nc3n(CC)c(C)c(C)n23)n(C)c1=O
    -1, 6
- Cc1nc2n(n1)C(=O)C(C(c1ccc([N+](=O)[O-])cc1)N1CCC(C)CC1)S2 (stereo not given)
    2, -1
- CC1(C(=O)Nc2nccs2)CCN1C(=O)C/C=C/c1ccccc1 (stereo not given)
    -1, -5
- COc1cc(C(=O)N2CCC[C@@H]2C(=O)NCCCNC(=O)c2ccc(F)cc2)cc(OC)c1OC
    3, 15
- O=C(c1ccc(Cl)c(F)c1)N1CCN(Cc2ccc(-c3noc(-c4cccs4)n3)cc2)CC1
    25, 12
- O=C(NCC(c1ccco1)S(=O)(=O)c1ccccc1)Oc1ccccc1 (stereo not given)
    0, -4
- COc1cc(/C=C2/C(=O)N(c3ccc4c(c3)CCC4)C(=S)N2C)ccc1O
    -3, 10
- CC(=O)OC(C(=O)N1CCC(Cc2ccc(C(F)(F)F)cc2)CC1)c1ccccc1 (stereo not given)
    2, 15
- Cc1cccc2c1OC(=O)c1cccc(C)c1OC2=O
    1, 2
- O=C(CCn1cnc2ccccc21)NN=Cc1c(O)ccc2ccccc12
    1, 0
- O=C(CN1C(=O)NC2(CCCc3sccc32)C1=O)Nc1ccccc1 (stereo not given)
    9, 2
- CC(C)N(C1CCC1)S(=O)(=O)c1cccc(-c2nnnn2C)c1
    3, 5
- CCCCn1c(CN(C)Cc2[nH]c3ccccc3c2C)cnc1S(=O)(=O)CC
    20, 4
- COc1ccc(CCN(C)C(=O)c2cc(-c3cccs3)nn2-c2ccc(C)cc2C)cc1OC
    -4, -3
- COc1ccc(-c2c3c([nH]c(=S)c2C#N)CCC3)cc1
    10&-4, 5&-5
- CCCN1CCN(c2nc3c(c(=O)[nH]c(=O)n3C)n2Cc2ccc(Cl)cc2)CC1
    3, 0
- COc1ccccc1-c1cc2nc(C)cc(N3CCCCC3)n2n1
    0, -5

Look-ups from the list:
Value of COc1cc(C(=O)N2CCC[C@@H]2C(=O)NCCCNC(=O)c2ccc(F)cc2)cc(OC)c1OC in NPYLR7 agonist: 3
Value of COc1cc(/C=C2/C(=O)N(c3ccc4c(c3)CCC4)C(=S)N2C)ccc1O in NPYLR7 agonist max-min: 10
Value of CC(=O)OC(C(=O)N1CCC(Cc2ccc(C(F)(F)F)cc2)CC1)c1ccccc1 (stereo not given) in NPYLR7 agonist max-min: 15

Returning to the listing; the 2 compounds before the break are reprinted first.
The line under a structure holds: NPYLR7 agonist, NPYLR7 agonist max-min
- CCCN1CCN(c2nc3c(c(=O)[nH]c(=O)n3C)n2Cc2ccc(Cl)cc2)CC1
    3, 0
- COc1ccccc1-c1cc2nc(C)cc(N3CCCCC3)n2n1
    0, -5
- CCc1cn[nH]c1C1CCN(C(=O)c2cc(C)n3nc(C)cc3n2)CC1
    -8, -15
- O=S(=O)(NCCc1csc2nc(-c3cccs3)nn12)c1cccc(F)c1
    5, 4
- CC1c2cccn2CCN1C(=O)C1CC(=O)N(c2ccccc2Br)C1 (stereo not given)
    0, -2
- O=C(O)c1ccccc1CN1CCCCC1CCc1ccc(O)cc1 (stereo not given)
    1, -1
- O=c1[nH]c(O)c(CCc2n[nH]c(Cc3ccccc3)n2)[nH]1
    3&13, -4&14
- O=C(N/N=C\c1ccncc1)c1cc(-c2ccc(Cl)cc2Cl)n[nH]1
    -4, -6
- Cc1cc(N2CCN(c3ccccc3Cl)CC2)nc(-n2cc([N+](=O)[O-])cn2)n1
    7, 6
- COc1ccc(COc2ccc(Cc3cnc(N)nc3N)cc2OC)cc1
    2, -4
- Cc1nc(SCc2cccc(C(=O)Nc3ccc(F)cc3)c2)nc(N(C)Cc2ccccc2)c1C
    4, 17
- O=C(NCCn1ncc2c(=O)n(Cc3ccc([N+](=O)[O-])cc3)cnc21)c1ccc(F)cc1
    -3, -9
- COC(=O)c1ccc(OC)cc1OCC(=O)NC1CCCCC1C (stereo not given)
    18, 11
- C=CCn1c(=O)c2c(nc3oc(-c4ccccc4)cn32)n(C)c1=O
    1, -5
- O=c1cc(CSc2nnc3ccccn23)c2ccc(O)cc2o1
    0, -1
- CCOC(=O)CC(=O)CSc1ncnc2c1nnn2-c1ccccc1
    8, 11
- CCCOc1ccc(C=NNC(=O)c2cc(C)oc2C)c(OCCC)c1
    0, -1
- CCc1ccccc1N1CCN(C(=O)c2ccc(Br)cc2)C(C)C1=O (stereo not given)
    13, 20
- Cc1nc2ccccc2nc1CN1CCCC(CO)(CCc2ccccc2)C1 (stereo not given)
    0, -4
- CNCc1cc(-c2ccnc3[nH]ccc23)ccc1OC
    1, 0
- O=C(NCc1cccc(F)c1)C(C1CCCC1)N1CCN(C(=O)c2cccs2)CC1 (stereo not given)
    -2, 6
- CC(C(=O)Nc1cccc(Br)c1)S(=O)(=O)CC1CCCO1 (stereo not given)
    -2, -4
- CC(C)Cc1cc(CN2CCCC(Nc3ccc4c(c3)OCCO4)C2)[nH]n1 (stereo not given)
    3, 0
- COCCCN(CC(=O)N1CCc2sccc2C1c1ccc(Cl)cc1Cl)C(=O)c1ccc([N+](=O)[O-])cc1 (stereo not given)
    -13, -12
- CNC(=O)COC1CN(C(=O)OCC(C)(C)C)CCC(=O)N(C)c2ccccc21 (stereo not given)
    -2, -1
- Cc1cccc(CNc2nccnc2-c2cc(C)c(O)c(C)c2)c1
    -4, -7
- CCOc1ccc(N2CCn3c2nnc(C(=O)NC(C)C)c3=O)cc1
    6, 5
- Cc1sc(=O)n(CCC(=O)N2CCS(=O)(=O)C(C)(C)C2)c1C
    7, 5
- COc1cc(-c2ccc3c(c2)COC2(CCN(CCCOCc4ccccc4)CC2)O3)cc(OC)c1OC
    -1, -9
- COCCCN(CC(=O)N(CCc1c[nH]c2ccccc12)Cc1ccc(C(C)(C)C)cc1)C(=O)c1cccs1
    4, 8
- CC(O)c1cccc(N2CCC(O)(C(=O)O)CC2)n1 (stereo not given)
    -1, -8
- CCCc1[nH]n(C)c(=O)c1C1=C(N2CCOCC2)C(=O)N(c2cc(C)ccc2OC)C1=O
    10, 15

(cont.)
The line under a structure holds: NPYLR7 agonist, NPYLR7 agonist max-min
- CCCC(=O)NNC(=O)c1cccc(S(=O)(=O)N2CCCC2)c1
    5, 1
- O=C(Nc1ccccc1)C(=O)N1CCCC(CCc2c(F)cccc2F)C1 (stereo not given)
    -1, -1
- CCS(=O)(=O)NCC(c1ccc(N(C)C)cc1)N1CCN(C)CC1 (stereo not given)
    9, 7
- Cc1ccccc1C1(O)CCN(C(=O)c2cccc3ccnn23)C1 (stereo not given)
    1, -3
- CC(C(=O)NCc1ccccc1F)n1c(-c2cccs2)n[nH]c1=S (stereo not given)
    6, 4
- O=C(CSc1nnc(-c2cccs2)n1C1CC1)NC1CCS(=O)(=O)C1 (stereo not given)
    5, 9
- Cn1ccnc1C(NC(=O)Cc1ccc2ccccc2c1)c1ccc(F)cc1 (stereo not given)
    2, -1
- CC(=O)NN1C(=O)/C(=C2\C(=O)N(Cc3ccccc3)c3ccccc32)SC1=S
    0, -1
- COCCOCC(=O)N(c1ccccc1C)C(C)C
    10, 7
- O=C(CN1C=Nc2ccccc2S1(=O)=O)NCC1(c2ccccc2)CCC1
    10, 5
- N#Cc1c(=O)c2c(=O)oc3ccccc3c2n2nc3n(c12)CCCCC3
    2, 5
- CC1(C)Cc2c(cnn2-c2cccc(F)c2)C(NCc2ccc(C#CCCO)cc2)C1 (stereo not given)
    -5, -12
- CCCCNC(=O)C1(C)CCN1C(=O)c1csnn1 (stereo not given)
    4, 1
- Cc1ccc(-c2noc(-c3ccccc3)n2)cc1
    -5, -11
- COc1cc(/C=C/CN2CCC(C(=O)NC(c3ccc(F)cc3)c3ccc4ccccc4n3)CC2)ccc1OC(C)=O (stereo not given)
    7, -2
- CCOC(=O)C(Cc1ccccc1)NC(=O)N1CCCN(c2c(-c3ccc(OC)cc3)cnc3ncnn23)CC1 (stereo not given)
    13, 7
- COC(=O)c1ccc(NC(=O)Cn2cc(OC)c(=O)cc2CO)cc1
    0, -2
- CC1(NC(=O)CN(CC(=O)NC2(C)CCS(=O)(=O)C2)C2CC2)CCS(=O)(=O)C1 (stereo not given)
    -2, 10
- Clc1ccccc1-c1nc2c(OCc3ccccc3)cccn2c1NCc1ccccc1
    4, 5
- COc1ccc(C(=O)C(C#N)=Cc2ccc(F)cc2)cc1
    -1, -2
- O=C(NCCNc1cc(-n2cccn2)ncn1)Nc1ccc2c(c1)OCCO2
    -6, -12
- O=C(c1ccc2snnc2c1)N1CCN(Cc2ccc(-c3noc(-c4cccc(C(F)(F)F)c4)n3)cc2)CC1
    26, 17
- COCCNC(=O)c1c(NC(=O)COc2ccc(C)cc2)sc2c1CCCC2
    11, 15
- CC(CN(C)c1nc(C2CCCC2)nc2c1CNC2)N1CCOCC1 (stereo not given)
    6, 8
- Cc1ccc(C(=O)NCC(NC(=O)c2ccc(C)nc2)C(C)C)cn1 (stereo not given)
    2, 8
- CC(C)N1C(=S)SC2CS(=O)(=O)C=C21 (stereo not given)
    3, 1
- CCSc1sc(SCC)c(C=O)c1Br
    -1, 9
- Cc1cc(C=O)c(C)n1-c1ccc(OCc2ccccc2)cc1
    16, 12
- CCOc1ccc(-c2ccnc(-c3csc(C)n3)n2)cc1C(=O)O
    5, 2
- Cc1cc(O)c(CN2CCCC2)c2c1C(=O)/C(=C/c1cc3ccccc3o1)O2
    57*, 58*

Of the compounds above, 3 have a CF3 group.
The line under a structure holds: NPYLR7 agonist, NPYLR7 agonist max-min
- O=C(Nc1ccc2[nH]cc(CCN3CCN(c4cccc(C(F)(F)F)c4)CC3)c2c1)c1c(Cl)cc(Cl)cc1Cl
    16, 6
- CC(=O)OC(C(=O)N1CCC(Cc2ccc(C(F)(F)F)cc2)CC1)c1ccccc1 (stereo not given)
    2, 15
- O=C(c1ccc2snnc2c1)N1CCN(Cc2ccc(-c3noc(-c4cccc(C(F)(F)F)c4)n3)cc2)CC1
    26, 17

(continued)
The line under a structure holds: NPYLR7 agonist, NPYLR7 agonist max-min
- O=C(Cn1cnc([N+](=O)[O-])n1)Nc1cc(C(F)(F)F)cnc1Cl
    4, 5
- COc1ccc(-n2nnnc2CNC(=O)NCc2cccc3ccccc23)cc1
    25, 16
- CC1CN(C(=O)c2cc(C(C)C)cc(C(C)C)c2O)CCO1 (stereo not given)
    -1, -3
- CCCCn1c(CN2CCN(c3ccc(F)cc3)CC2)nc2c1c(=O)n(C)c(=O)n2C
    15, 8
- CC(NC(=O)N(C)Cc1ccc(S(C)=O)cc1)C(C)(C)C (stereo not given)
    16, 15
- CC(=O)c1ccc(S(=O)(=O)N2CCCCC2C)cc1 (stereo not given)
    9, 4
- CCOC(=O)CCC(=O)Nc1c(C)nc2sccn2c1=O
    -6, -6
- O=C(NCC1CCCO1)c1csc2c1CCCCC2 (stereo not given)
    15, 16
- Cc1ccnc(NC2CC(=O)N(CCCc3ccccc3)C2)n1 (stereo not given)
    13, 12
- COCc1cc(N2CCN(C)CC2)nc(SCc2cccc(C(=O)NCc3ccncc3)c2)n1
    -6, 10
- O=C(O)c1cnc2c(c1)n(CCn1cccc1)c(=O)n2CCc1ccccn1
    10, 3
- COc1ccc(OC)c(-c2cnc(-c3ccc(CNC(=O)c4cnn(C)c4Cl)cc3)[nH]2)c1
    11, 27
- Cc1cc(Oc2cc(N3CCOCC3)ncn2)ccc1Cl
    -9, -2
- CN1C(=O)C(Cc2ccccc2)ON=C1C1CCCC1 (stereo not given)
    -6, -5
- Cc1cc(Br)cc2c(N=NC(=O)c3ccc(O)cc3)c(O)n(C)c12
    -4, -8
- c1ccc(-n2nnnc2N2CCCC(c3nc4ccccc4s3)C2)cc1 (stereo not given)
    4, 9
- CC(=O)Cn1c(=O)c2c(nc3n(-c4ccc(C)cc4C)c(C)cn23)n(C)c1=O
    6, 7
- CCOC(=O)C1=NNC(c2ccccc2)(c2ccccc2)C1C(=O)OCC (stereo not given)
    -4, -9
- Cc1cc2cc(CNC(=O)Nc3cn(C)c4ccccc34)ccc2[nH]1
    2, -3
- Cc1cc(C)c[n+](-c2[nH]c(=O)sc2C=O)c1
    -2, -7
- CN(C)S(=O)(=O)c1ccc(Br)cc1
    -6, -6
- CCC(=O)Nc1ccc(C)c(NC(=O)c2cccs2)c1
    1, 1
- C=CCn1c(SC(C(C)=O)=C(C)O)nc2sc3c(c2c1=O)CCCC3
    -7, -12
- NC(=O)c1csc(N2CCOC(c3ccc(F)cc3)C2)n1 (stereo not given)
    -4, -4
- C=CCS(=O)(=O)N1CCCC(c2nn(C)c(=O)n2-c2ccccc2)C1 (stereo not given)
    -2, -2
- Cc1noc(-c2cccc(C(F)(F)F)c2)c1C(=O)NCCC1CCCN1C (stereo not given)
    7, 15
- Cn1cc(NC(=O)CN2CCCC2c2nc3ccc(F)cc3[nH]2)cn1 (stereo not given)
    1, 2

Part of the list above, bar-delimited:
mol | NPYLR7 agonist | NPYLR7 agonist max-min
CC(=O)c1ccc(S(=O)(=O)N2CCCCC2C)cc1 (stereo not given) | 9 | 4
CCOC(=O)CCC(=O)Nc1c(C)nc2sccn2c1=O | -6 | -6
